KCNQ2 enhance: potentiators of rat KCNQ2 potassium channel; 310,000 tested, 0.54% active; CHO-K1 KCNQ2, FluxOR thallium flux fluorescence; active compounds read high; O88943; B-score at 10 µM;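 active = fluorescence ratio B-score at least 3 SD of library B-scores, with initial fluorescence B-score within 3 SD, cut at about 5.3 in these data; same plate scores as AID 2156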;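 also: B-score of peak minus minimum over baseline fluorescence ratio after K+ and Tl+ stimulus; positive B-score means potentiation of KCNQ2 with more thallium influx and brighter signal; only the inactives scoring about 0 or higher are listed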
Target sequence (O88943 whole entry, looked up): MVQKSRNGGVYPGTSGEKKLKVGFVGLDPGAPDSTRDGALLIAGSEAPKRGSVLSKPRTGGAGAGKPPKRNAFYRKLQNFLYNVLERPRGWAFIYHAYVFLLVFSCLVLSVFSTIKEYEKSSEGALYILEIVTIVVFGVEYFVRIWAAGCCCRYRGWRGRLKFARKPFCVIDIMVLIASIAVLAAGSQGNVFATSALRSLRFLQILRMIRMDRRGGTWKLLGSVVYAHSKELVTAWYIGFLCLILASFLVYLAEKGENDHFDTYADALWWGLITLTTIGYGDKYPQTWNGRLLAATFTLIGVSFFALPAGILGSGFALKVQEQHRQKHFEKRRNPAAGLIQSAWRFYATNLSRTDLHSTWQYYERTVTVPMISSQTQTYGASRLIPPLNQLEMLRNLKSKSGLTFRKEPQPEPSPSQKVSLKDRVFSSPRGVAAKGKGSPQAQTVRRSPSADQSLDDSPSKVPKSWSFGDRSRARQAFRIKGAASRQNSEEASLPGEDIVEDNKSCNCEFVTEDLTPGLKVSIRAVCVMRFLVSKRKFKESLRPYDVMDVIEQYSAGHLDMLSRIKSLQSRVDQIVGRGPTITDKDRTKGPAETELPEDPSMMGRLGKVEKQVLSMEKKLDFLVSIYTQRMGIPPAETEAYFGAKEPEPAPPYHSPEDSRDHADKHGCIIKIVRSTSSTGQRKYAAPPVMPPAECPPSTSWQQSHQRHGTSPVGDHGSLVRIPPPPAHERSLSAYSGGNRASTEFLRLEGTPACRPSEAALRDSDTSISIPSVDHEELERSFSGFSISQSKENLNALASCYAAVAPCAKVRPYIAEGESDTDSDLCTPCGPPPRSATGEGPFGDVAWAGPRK
KCNQ2 enhance baseline: second read-out of KCNQ2 enhance, no call of its own (marks repeat the call); B-score; compound at 10 µM; measured here: initial fluorescence intensity artifact check;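 brightness before thallium and not channel activity; 0 = typical well and far values either way flag optical interference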
Numbers without * were called inactive.

CCC(C)C1C(C#N)=C(N)Oc2n[nH]c(-c3ccccc3)c21 (centres undefined)
  KCNQ2 enhance = 0.28; KCNQ2 enhance baseline = 0.52

CSc1ncccc1C(=O)OCC(=O)N(C)c1c(N)n(Cc2ccccc2)c(=O)[nH]c1=O
  KCNQ2 enhance = 1; KCNQ2 enhance baseline = -0.05

CCC(=O)Oc1ccc2c(=O)c(-c3ccc4ccccc4n3)c(CC)oc2c1C
  KCNQ2 enhance = 1.7; KCNQ2 enhance baseline = -0.09

Cc1csc2ncc(C(=O)N(Cc3ccccc3)c3ccccn3)c(=O)n12
  KCNQ2 enhance = 0.19; KCNQ2 enhance baseline = 0.93

O=C(C1CCC1)N1CCc2cc(S(=O)(=O)N3CCN(c4ccccn4)CC3)ccc21
  KCNQ2 enhance = 0.56; KCNQ2 enhance baseline = -0.71

Cc1ccc(S(=O)(=O)/N=C2\C=C(Nc3cccc(C(=O)O)c3)C(=O)c3ccccc32)c(C)c1
  KCNQ2 enhance = 4.4; KCNQ2 enhance baseline = -2.8

CC12CCC(=O)N1C(C(=O)Nc1nnc(SCc3ccc(F)cc3)s1)CS2 (centres undefined)
  KCNQ2 enhance = 0.36; KCNQ2 enhance baseline = -2.5

COc1ccc(-c2cc(C#N)nc(Cl)n2)cc1
  KCNQ2 enhance = 0.16; KCNQ2 enhance baseline = -1.1

COCCNC(=O)CSc1ncnc2sccc12
  KCNQ2 enhance = 2.7; KCNQ2 enhance baseline = -1.2

CCN(CC(=O)Nc1ccc(Cl)c(S(=O)(=O)N(C)C)c1)CC(=O)NC(C)C
  KCNQ2 enhance = 2.4; KCNQ2 enhance baseline = -0.09

O=C(O)COc1ccccc1/C=C1\SC(=Nc2ccc(F)cc2)N(c2ccc(F)cc2)C1=O
  KCNQ2 enhance = 1.1; KCNQ2 enhance baseline = -0.06

CCOC(=O)C1(Cc2ccc(OC)cc2)CCN(C(=O)c2csc(C)n2)CC1
  KCNQ2 enhance = 1.2; KCNQ2 enhance baseline = -0.51

COCCCNC(=O)C1CCCN(S(C)(=O)=O)C1 (centres undefined)
  KCNQ2 enhance = 0.49; KCNQ2 enhance baseline = 0.54

O=C(Cc1ccccc1)NC(=S)Nc1ccc(OC(F)F)cc1
  KCNQ2 enhance = 0.95; KCNQ2 enhance baseline = 0.16

CCOc1ccc(OCC)c(NC(=O)C2CCCN(S(=O)(=O)c3c(C)noc3C)C2)c1 (centres undefined)
  KCNQ2 enhance = 0.96; KCNQ2 enhance baseline = 0.53

Nc1nc(SCC(=O)Nc2ccccc2Oc2ccccc2)n[nH]1
  KCNQ2 enhance = 0.88; KCNQ2 enhance baseline = -0.83

CCn1nc(C)c(Oc2ccccc2O)c1C
  KCNQ2 enhance = 2.8; KCNQ2 enhance baseline = -0.12

Cc1ccc(Cn2nnc3c(=O)[nH]c(C4CCN(S(=O)(=O)c5ccc(S(=O)(=O)NC6CC6)cc5)CC4)nc32)cc1
  KCNQ2 enhance = 0.09; KCNQ2 enhance baseline = 1.8

CCOc1ccc2nc(Cl)c(CN(C(C)=O)C3CCCCC3)cc2c1
  KCNQ2 enhance = 0.41; KCNQ2 enhance baseline = -0.73

CS(=O)(=O)N1CCN(C(=O)NC23CC4CC(CC(C4)C2)C3)CC1
  KCNQ2 enhance = 0.06; KCNQ2 enhance baseline = -1.5

Full records, looked up by structure. Values in the order: KCNQ2 enhance | KCNQ2 enhance baseline
Profile of CCOC(=O)C1(Cc2ccc(OC)cc2)CCN(C(=O)c2csc(C)n2)CC1 = 1.2 | -0.51
Profile of O=C(Cc1ccccc1)NC(=S)Nc1ccc(OC(F)F)cc1 = 0.95 | 0.16

Exported with values ahead of the structure: entries from further up.
KCNQ2 enhance	KCNQ2 enhance baseline	Molecule
0.96	0.53	CCOc1ccc(OCC)c(NC(=O)C2CCCN(S(=O)(=O)c3c(C)noc3C)C2)c1 (centres undefined)
0.88	-0.83	Nc1nc(SCC(=O)Nc2ccccc2Oc2ccccc2)n[nH]1
2.8	-0.12	CCn1nc(C)c(Oc2ccccc2O)c1C
0.09	1.8	Cc1ccc(Cn2nnc3c(=O)[nH]c(C4CCN(S(=O)(=O)c5ccc(S(=O)(=O)NC6CC6)cc5)CC4)nc32)cc1
0.41	-0.73	CCOc1ccc2nc(Cl)c(CN(C(C)=O)C3CCCCC3)cc2c1
0.06	-1.5	CS(=O)(=O)N1CCN(C(=O)NC23CC4CC(CC(C4)C2)C3)CC1

The list goes on.
COc1cccc(-c2nnc(SCCOc3ccc4c(C)cc(=O)oc4c3)o2)c1
  KCNQ2 enhance = 1.1; KCNQ2 enhance baseline = 1.3

CCCN(Cc1cc2cccc(C)c2[nH]c1=O)C(=O)c1cccc(OC)c1
  KCNQ2 enhance = 0.21; KCNQ2 enhance baseline = 0.9

O=S(=O)(Nc1cccc(-c2nnco2)c1)c1ccc(Cl)cc1
  KCNQ2 enhance = 0.65; KCNQ2 enhance baseline = -0.55

Cn1cnnc1SCC(=O)Nc1ccc(Oc2ccccc2)cc1
  KCNQ2 enhance = 0.26; KCNQ2 enhance baseline = -0.59

CCN(CC)CCCNC(=O)Cn1cnc2sc(C)c(S(=O)(=O)N3CCN(c4ncccn4)CC3)c2c1=O
  KCNQ2 enhance = 1.3; KCNQ2 enhance baseline = -0.03

O=C(Nc1c(F)cccc1F)c1ccc(-n2cncn2)nc1
  KCNQ2 enhance = 0.74; KCNQ2 enhance baseline = 0.05

COc1ccc([C@@H]2[C@@H]3C(=O)N(C(C)(C)C)C(=O)[C@@H]3[C@]3(C)C(=O)N(c4ccc(C(F)(F)F)cc4)C(=O)N23)cc1
  KCNQ2 enhance = 1.4; KCNQ2 enhance baseline = -0.07

Cc1cnc(NC(=O)CC(C)c2ccccc2)s1 (centres undefined)
  KCNQ2 enhance = 1; KCNQ2 enhance baseline = -0.33

CCC(=O)Nc1ccc(NC(=S)NC(=O)/C=C/c2ccco2)cc1
  KCNQ2 enhance = 1.1; KCNQ2 enhance baseline = 2.3

CCCCSc1nnc(-c2ccc(NC(=O)CC)cc2)n1C
  KCNQ2 enhance = 0.68; KCNQ2 enhance baseline = 0.18

CCn1cc(C(=O)NCC2CCCO2)c(=O)c2cc(S(=O)(=O)N3CCCCC3)ccc21 (centres undefined)
  KCNQ2 enhance = 0.87; KCNQ2 enhance baseline = 0.23

Cc1ccc(-n2nc3c(=O)n(CC(=O)NCc4ccc(C)o4)nc(C)c3c2C)cc1
  KCNQ2 enhance = 0.04; KCNQ2 enhance baseline = -0.87

O=C(O)c1cccc(-c2ccc3c(c2)OCO3)c1
  KCNQ2 enhance = 0.21; KCNQ2 enhance baseline = 0.17

COc1ccccc1NC(=O)CCSc1nnc(-c2ccc(O)cc2)o1
  KCNQ2 enhance = 1.3; KCNQ2 enhance baseline = -0.56

Cc1ccc(CC(=O)Nc2nc3c(s2)CCCC3)cc1
  KCNQ2 enhance = 0.77; KCNQ2 enhance baseline = 0.22

COc1ccc(C2/C(=C(\O)c3ccc4c(c3)OCCO4)C(=O)C(=O)N2CCCn2ccnc2)cc1 (centres undefined)
  KCNQ2 enhance = 0.41; KCNQ2 enhance baseline = 0.98

CSc1nc2ccc(Br)cc2[nH]1
  KCNQ2 enhance = 0.59; KCNQ2 enhance baseline = -0.97

Cc1c(C(=O)Nc2ccc(Cc3ccncc3)cc2)cccc1[N+](=O)[O-]
  KCNQ2 enhance = 2.1; KCNQ2 enhance baseline = 0.12

CC(=O)N1c2ccc(S(=O)(=O)NCCC(=O)NC3CCCC(C)C3C)cc2CC1C (centres undefined)
  KCNQ2 enhance = 0.66; KCNQ2 enhance baseline = -1.6

Fc1cccc(Nc2ncnc3c2cnn3-c2ccccc2)c1
  KCNQ2 enhance = 0.09; KCNQ2 enhance baseline = -0.65

CCOc1ccc(OCC)c(NC(=O)c2nnn(CC(=O)Nc3cc(C)cc(C)c3)c2N)c1
  KCNQ2 enhance = 1.2; KCNQ2 enhance baseline = -1

CCN1CCN(C(=O)c2ccc(OC3CCN(CCc4ccccc4)CC3)cc2)[C@@H](C)C1=O
  KCNQ2 enhance = 0.44; KCNQ2 enhance baseline = 0.58

CCCC(C)NC(=O)COC(=O)c1ccc2c(c1)C(=O)N(Cc1ccco1)C2=O (centres undefined)
  KCNQ2 enhance = 4.2; KCNQ2 enhance baseline = -1.4

COc1ccc(-c2nnn(CC(=O)NC3CCCc4ccccc43)n2)cc1OC (centres undefined)
  KCNQ2 enhance = 0.52; KCNQ2 enhance baseline = -2.7

O=C(NC1CCCC1)c1ccc(Br)s1
  KCNQ2 enhance = 0.51; KCNQ2 enhance baseline = 0

O=C(Nc1cccc(NC(=O)c2cccnc2)c1)c1ccccc1
  KCNQ2 enhance = 1.7; KCNQ2 enhance baseline = 0.22

COc1cccc(C(=O)Nc2nc3c(c(=O)[nH]2)CCCC3)c1
  KCNQ2 enhance = 0.17; KCNQ2 enhance baseline = -2.1

C/C(=N/NC(=O)c1cccs1)c1cccs1
  KCNQ2 enhance = 0.22; KCNQ2 enhance baseline = -0.89

COc1nc(C)ccc1-c1noc(-c2cccs2)n1
  KCNQ2 enhance = 0.01; KCNQ2 enhance baseline = -2.3

COC(=O)Cn1c(=O)sc2ccccc21
  KCNQ2 enhance = 0.01; KCNQ2 enhance baseline = -0.67

CCN1CCN(C(=O)c2ccc3nc(-c4ccccc4)c(-c4ccccc4)nc3c2)CC1
  KCNQ2 enhance = 2.2; KCNQ2 enhance baseline = -0.44

CC1CCCC(NC(=O)CCNC(=O)c2ccc(Cl)cc2)C1C (centres undefined)
  KCNQ2 enhance = 2.1; KCNQ2 enhance baseline = 1

O=C(Oc1cc2oc(=O)cc(-c3ccccc3)c2cc1Cl)C1CCCCC1
  KCNQ2 enhance = 0.85; KCNQ2 enhance baseline = -2.2

CC1Oc2ccccc2N(CC(=O)NC2CC2)C1=O (centres undefined)
  KCNQ2 enhance = 0.49; KCNQ2 enhance baseline = 0.03

O=C(O)c1cccc(N/N=C/c2cccc3ccccc23)c1
  KCNQ2 enhance = 0.42; KCNQ2 enhance baseline = -0.18

COC(=O)c1c(-c2ccc(C(C)(C)C)cc2)csc1NC(=O)C1C2CCC(O2)C1C(=O)O (centres undefined)
  KCNQ2 enhance = 1.2; KCNQ2 enhance baseline = 0.74

CCOC(=O)N1CCN(c2c(F)cc3[nH]c(=S)[nH]c3c2Br)CC1
  KCNQ2 enhance = 0.6; KCNQ2 enhance baseline = 1.1

Cc1nnc(N2CCOCC2)c2nn(-c3cccc(Cl)c3)c(C)c12
  KCNQ2 enhance = 0.52; KCNQ2 enhance baseline = -0.52

COc1ccccc1NC(=O)c1ccc(S(=O)(=O)N2CCC(C)CC2)cc1
  KCNQ2 enhance = 0.5; KCNQ2 enhance baseline = 1.3

Cn1c(-c2csc(-c3ccccc3)n2)n[nH]c1=S
  KCNQ2 enhance = 0.36; KCNQ2 enhance baseline = 2

CC1(C)CC2(CCO1)N1CC3(C)CN2CC(C)(C1)C3=O (centres undefined)
  KCNQ2 enhance = 0.94; KCNQ2 enhance baseline = 3.3

O=C(Nc1ccc2c(c1)OCCO2)c1ccc(CN2CCOCC2)cc1
  KCNQ2 enhance = 1.6; KCNQ2 enhance baseline = -0.05

C/C(=N\Nc1cccc([N+](=O)[O-])c1)c1ccccc1O
  KCNQ2 enhance = 1; KCNQ2 enhance baseline = -0.51

CC(C)(C)NC(=S)NNC(=O)[C@H]1C[C@@H]1c1ccccc1
  KCNQ2 enhance = 1.1; KCNQ2 enhance baseline = -0.09

CCOC(=O)c1c(C)oc2ccc(O)c(CN3CCCCC3)c12
  KCNQ2 enhance = 0.05; KCNQ2 enhance baseline = 0.24

COc1ccc(NC(=S)Nc2ccc3snnc3c2)cc1
  KCNQ2 enhance = 0.72; KCNQ2 enhance baseline = 0.68

O=C(COc1ncnc2ccccc12)NCCCN1CCCC1=O
  KCNQ2 enhance = 0.09; KCNQ2 enhance baseline = 0.99

CCOC(=O)Cn1c(CN2CCN(c3cccc(Cl)c3)CC2)nc2c1c(=O)[nH]c(=O)n2C
  KCNQ2 enhance = 0.02; KCNQ2 enhance baseline = 1.9

3 entries from above in a different format.
mol	KCNQ2 enhance	KCNQ2 enhance baseline
COc1ccc(NC(=S)Nc2ccc3snnc3c2)cc1	0.72	0.68
O=C(COc1ncnc2ccccc12)NCCCN1CCCC1=O	0.09	0.99
CCOC(=O)Cn1c(CN2CCN(c3cccc(Cl)c3)CC2)nc2c1c(=O)[nH]c(=O)n2C	0.02	1.9

An excerpt. The share of hits here may be higher or lower than overall.
